# Vaccinia stage = Vaccinia orthopox stage-specific inhibition | Vaccinia-infected cells, mCherry/Venus stage reporter fluorescence; hits give low values; some inactives read as strong as hits | activity change (mCherry), % (concentration not given with the values) | 0.01% of 89,000 active | AID 1053133;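 active = mCherry past -33% and 40 or more points under the early reporter, replicates agreeing; inconclusive = past -33% without that gap or agreement; tested in A549 cells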;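 also: scaled between vehicle wells and reference inhibitor wells; 23 nL library stock went into each well; one replicate is shown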
# Vaccinia stage Venus = further read-out of Vaccinia stage, marked with its call; activity change (Venus), %; measured here: Venus reporter, other viral stage;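 negative = less Venus signal; first of two replicates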
# * = called active by the depositor; ? = inconclusive; nt = not tested or not shown. A portion of the library; the hit share may differ from the screen's.
1. CC(C)NC(=O)Nc1ccc2c(c1)C(=O)N([C@@H](C)CO)C[C@@H](C)[C@@H](CN(C)C(=O)CCCN(C)C)OCCCC[C@@H](C)O2
2. C[C@@H]1CN([C@@H](C)CO)C(=O)c2cc(NS(=O)(=O)c3ccc(Cl)cc3)ccc2O[C@@H]1CN(C)S(=O)(=O)c1ccc(F)cc1
3. COc1ccc(-c2ccc([C@H]3[C@@H](CO)N4C(=O)CN(C(=O)C5CCCC5)C[C@@H]34)cc2)cc1
4. CCC(=O)N1CC[C@H]2[C@@H]1c1cc(-c3ccc(OC)cc3)ccc1N(C)[C@H]2CO
5. C[C@@H]1CCCCO[C@H](CN(C)S(=O)(=O)c2ccc(F)cc2)[C@@H](C)CN([C@H](C)CO)C(=O)c2cc(NC(=O)CCCN(C)C)ccc2O1
6. CC(C)c1cn(CC[C@@H]2CC[C@@H](NS(=O)(=O)c3ccc(Cl)cc3)[C@H](CO)O2)nn1
assay / compound | 1 | 2 | 3 | 4 | 5 | 6
Vaccinia stage | 29 | ? | -10 | 2 | 13 | -7
Vaccinia stage Venus | 5 | nt | -5 | 5 | 0 | 1

7. C/C=C/c1ccc2c(c1)O[C@@H](CN(C)C(=O)Cc1ccccc1)[C@H](C)CN([C@H](C)CO)S2(=O)=O
8. CCCC#Cc1ccc([C@@H]2[C@H]3CN(C(=O)c4ccccc4)CC(=O)N3[C@H]2CO)cc1
9. COc1ccc(CN(C)C[C@H]2Oc3ccc(NS(=O)(=O)c4ccc(Cl)cc4)cc3C(=O)N([C@H](C)CO)C[C@@H]2C)cc1
10. Cc1ccc(S(=O)(=O)N(C)C[C@@H]2Oc3c(NC(=O)NC(C)C)cccc3C(=O)N([C@H](C)CO)C[C@@H]2C)cc1
11. C[C@@H]1CN([C@H](C)CO)C(=O)Cc2cc(NC(=O)Cn3cnnn3)ccc2O[C@@H]1CN(C)C(=O)Nc1ccc(C(F)(F)F)cc1
12. C[C@@H]1CN([C@@H](C)CO)C(=O)c2cc(NS(=O)(=O)c3ccc(F)cc3)ccc2O[C@@H]1CN(C)C(=O)Nc1ccc(F)cc1
assay / compound | 7 | 8 | 9 | 10 | 11 | 12
Vaccinia stage | -7 | -10 | 9 | ? | 18 | 8
Vaccinia stage Venus | -2 | -6 | 6 | nt | 7 | 8

13. C[C@H](CO)N1C[C@H](C)[C@H](CN(C)C(=O)Cc2ccccn2)Oc2ncc(C#CC3CCCC3)cc2C1=O
14. O=C(C[C@@H]1C[C@@H]2c3cc(NC(=O)C4CCOCC4)ccc3O[C@@H]2[C@H](CO)O1)NCc1ccccc1F
15. C[C@H](CO)N1C[C@H](C)[C@@H](CN(C)Cc2ccc(C(=O)O)cc2)OCCCC[C@H](C)Oc2ccc(NS(=O)(=O)c3cccs3)cc2C1=O
16. Cc1cc(C(=O)Nc2cccc3c2O[C@H](CN(C)S(=O)(=O)c2ccc(F)cc2)[C@H](C)CN([C@H](C)CO)C3=O)n(C)n1
17. OC[C@H]1[C@H](c2ccc(-c3cccnc3)cc2)[C@H]2CN(Cc3ccccn3)CCCCN21
18. C[C@@H]1CN([C@H](C)CO)C(=O)c2cc(-c3cccc(F)c3)cnc2O[C@H]1CN(C)C(=O)Nc1ccccc1F
assay / compound | 13 | 14 | 15 | 16 | 17 | 18
Vaccinia stage | 2 | 6 | 8 | 3 | 4 | 12
Vaccinia stage Venus | 3 | 2 | 6 | 1 | -7 | 14

19. CCCC(=O)Nc1ccc2c(c1)C(=O)N(C)C[C@H](OC)[C@H](C)CN(Cc1ccccc1)[C@H](C)CO2
20. CO[C@@H]1CN(C)C(=O)c2cc(NC(=O)NC(C)C)ccc2OC[C@H](C)N(Cc2ccccc2)C[C@@H]1C
21. COc1cccc(S(=O)(=O)N2C[C@H](O)COC[C@@H]3O[C@H](CC(=O)N4CCOCC4)CC[C@H]32)c1
22. C[C@@H]1CN([C@H](C)CO)C(=O)c2cc(C3=CCCC3)cnc2O[C@H]1CN(C)C(=O)c1ccncc1
23. COc1ccc(S(=O)(=O)N[C@@H]2C=C[C@@H](CC(=O)O)O[C@H]2CO)cc1
24. O=C(NCC[C@@H]1CC[C@@H](NS(=O)(=O)c2ccc(F)cc2)[C@H](CO)O1)c1ccccc1F
assay / compound | 19 | 20 | 21 | 22 | 23 | 24
Vaccinia stage | -28 | 3 | 2 | 17 | 16 | 9
Vaccinia stage Venus | -22 | 1 | -3 | 13 | 8 | 12

25. CCC(=O)N(C)C[C@H]1Oc2cc(-c3cncnc3)ccc2S(=O)(=O)N([C@@H](C)CO)C[C@H]1C
26. O=C(C[C@@H]1C[C@H]2c3cc(NC(=O)NC4CCCCC4)ccc3O[C@H]2[C@@H](CO)O1)NCc1ccccn1
27. COc1ccc(S(=O)(=O)Nc2cccc3c2O[C@@H](CN(C)Cc2ccc(C(F)(F)F)cc2)[C@@H](C)CN([C@@H](C)CO)C3=O)cc1
28. CN(C)CCCNC(=O)C[C@@H]1CC[C@H]2[C@@H](COc3ccc(NC(=O)c4cccc(F)c4)cc3C(=O)N2C)O1
29. C[C@H]1CN([C@@H](C)CO)C(=O)c2cc(N(C)C)ccc2O[C@@H]1CN(C)Cc1ccc(Cl)c(Cl)c1
30. C[C@@H](NC(=O)[C@H]1[C@H](CO)[C@H]2Cn3c(ccc(-c4cccc(F)c4)c3=O)[C@H]2N1C)c1ccccc1
assay / compound | 25 | 26 | 27 | 28 | 29 | 30
Vaccinia stage | 16 | 9 | -20 | 2 | -26 | -4
Vaccinia stage Venus | 3 | 9 | -25 | 5 | -15 | -6

31. CN(C)CC(=O)Nc1ccc2c(c1)[C@H]1C[C@H](CC(=O)NCc3cccc(F)c3)O[C@@H](CO)[C@H]1O2
32. C[C@@H]1CCCCO[C@H](CN(C)C(=O)NC2CCCCC2)[C@@H](C)CN([C@H](C)CO)C(=O)c2cc(NC(=O)Nc3cccc4ccccc34)ccc2O1
33. O=C(C[C@@H]1C[C@H]2c3cc(NC(=O)C4CCOCC4)ccc3O[C@H]2[C@H](CO)O1)NCc1cccnc1
34. CN1CCN(C(=O)C[C@@H]2CC[C@@H]3[C@H](COc4ccc(NC(=O)c5ccc(F)c(F)c5)cc4C(=O)N3C)O2)CC1
35. CO[C@@H](CN(C)C(=O)c1cnccn1)[C@@H](C)CN([C@H](C)CO)S(=O)(=O)c1ccc(Cl)cc1
36. COCC#Cc1ccc2c(c1)O[C@@H](CN(C)S(=O)(=O)c1ccc(C)cc1)[C@H](C)CN([C@@H](C)CO)S2(=O)=O
assay / compound | 31 | 32 | 33 | 34 | 35 | 36
Vaccinia stage | 12 | 19 | 2 | 1 | 19 | -5
Vaccinia stage Venus | 9 | 23 | 4 | 6 | 14 | -19

37. COCC(=O)N(C)C[C@H]1Oc2ncc(C#Cc3ccc(OC)cc3)cc2C(=O)N([C@@H](C)CO)C[C@H]1C
38. COCC(=O)N(C)C[C@@H]1Oc2cc(-c3cccc(F)c3)ccc2S(=O)(=O)N([C@@H](C)CO)C[C@@H]1C
39. O=C(C[C@H]1C[C@@H]2c3cc(NC(=O)C4CCC4)ccc3O[C@@H]2[C@@H](CO)O1)NCc1cccnc1
40. CCC(=O)N[C@@H]1C=C[C@H](CC(=O)NCc2ccc(OC)cc2)O[C@H]1CO
41. COc1ccccc1S(=O)(=O)N1[C@@H]2CNC[C@H]1C2c1ccc(-c2ccncc2)cc1 (stereo partly drawn)
42. COc1ccccc1CNC(=O)C[C@H]1C[C@@H]2c3cc(NC(=O)C4CCOCC4)ccc3O[C@@H]2[C@@H](CO)O1
assay / compound | 37 | 38 | 39 | 40 | 41 | 42
Vaccinia stage | 15 | 4 | 11 | 2 | -9 | 1
Vaccinia stage Venus | 6 | 0 | 8 | -6 | 3 | 9

43. CC(C)NC(=O)Nc1ccc2c(c1)C(=O)N([C@H](C)CO)C[C@@H](C)[C@H](CN(C)C(=O)Nc1ccc3c(c1)OCO3)OCCCC[C@@H](C)O2
44. C[C@H]1CN([C@@H](C)CO)C(=O)c2cccc(NS(C)(=O)=O)c2O[C@@H]1CN(C)C(=O)NC1CCCCC1
45. C[C@H](CO)N1C[C@H](C)[C@@H](CN(C)CC2CC2)Oc2ccc(N(C)C)cc2CC1=O
46. C[C@H](CO)N1C[C@H](C)[C@@H](CN(C)C(=O)NC2CCCCC2)OCCCC[C@H](C)Oc2ccc(NS(=O)(=O)c3ccc(Cl)cc3)cc2C1=O
47. C[C@H](CO)N1C[C@H](C)[C@@H](CN(C)C(=O)Nc2ccccc2)Oc2cc(C#Cc3ccccc3)ccc2S1(=O)=O
48. C[C@H](CO)N1C[C@H](C)[C@@H](CN(C)Cc2ccncc2)Oc2ccc(N(C)C)cc2CC1=O
assay / compound | 43 | 44 | 45 | 46 | 47 | 48
Vaccinia stage | 17 | 9 | 3 | -31 | -35 | 5
Vaccinia stage Venus | 11 | 10 | 3 | -35 | -23 | 0

49. C[C@H](CO)N1C[C@H](C)[C@H](CN(C)C(=O)Cc2cccnc2)Oc2ncc(C3=CCCCC3)cc2C1=O
50. COc1ccc(NC(=O)N2CCCCN3[C@H](CO)[C@@H](c4ccc(C#Cc5ccccc5)cc4)[C@H]3C2)cc1
51. O=C(C[C@@H]1CC[C@@H](NC(=O)C2CC2)[C@@H](CO)O1)NCc1ccccc1Cl
52. C[C@H](CO)N1C[C@H](C)[C@H](CN(C)Cc2ccc(C(=O)O)cc2)Oc2c(NC(=O)c3nc4ccccc4s3)cccc2C1=O
53. CC(C)NC(=O)Nc1ccc2c(c1)CC(=O)N([C@@H](C)CO)C[C@@H](C)[C@H](CN(C)CC1CCCCC1)O2
54. C[C@@H]1CN([C@H](C)CO)C(=O)Cc2cc(NC(=O)Nc3cccc4ccccc34)ccc2O[C@H]1CN(C)C(=O)Nc1cccc2ccccc12
assay / compound | 49 | 50 | 51 | 52 | 53 | 54
Vaccinia stage | 3 | ? | -9 | 12 | -13 | 6
Vaccinia stage Venus | 5 | nt | -7 | 10 | -6 | 6

55. Cc1noc(C)c1S(=O)(=O)N(C)C[C@@H]1Oc2ccc(NS(=O)(=O)c3ccc(Cl)cc3)cc2C(=O)N([C@@H](C)CO)C[C@@H]1C
56. C[C@@H]1CN([C@H](C)CO)C(=O)CCCn2cc(nn2)CO[C@H]1CN(C)C(=O)Nc1cccc(C(F)(F)F)c1
57. C[C@H]1CN([C@@H](C)CO)C(=O)Cc2cc(N(C)C)ccc2O[C@H]1CN(C)S(C)(=O)=O
58. CN(C)CC(=O)Nc1ccc2c(c1)[C@H]1C[C@@H](CC(=O)NCc3cc(F)ccc3F)O[C@@H](CO)[C@H]1O2
59. Cc1ccc(S(=O)(=O)Nc2ccc3c(c2)C(=O)N([C@H](C)CO)C[C@@H](C)[C@H](CN(C)CC2CC2)O3)cc1
60. Cc1ccc(S(=O)(=O)N(C)C[C@H]2Oc3ccc(NC(=O)Cc4ccccc4)cc3C(=O)N([C@@H](C)CO)C[C@H]2C)cc1
assay / compound | 55 | 56 | 57 | 58 | 59 | 60
Vaccinia stage | 0 | 2 | ? | -5 | 23 | -18
Vaccinia stage Venus | -1 | -16 | nt | 3 | 7 | -8

61. COc1ccc(S(=O)(=O)N(C)C[C@@H]2OCCCC[C@H](C)Oc3ccc(NC(=O)CCC(F)(F)F)cc3C(=O)N([C@@H](C)CO)C[C@H]2C)cc1
62. CN(C)C(=O)c1cccc(-c2ccc3c(c2)[C@H]2[C@H](CCN2C(=O)Cc2ccccc2)[C@@H](CO)N3)c1
63. Cc1noc(C)c1NC(=O)N(C)C[C@@H]1OCCCC[C@@H](C)Oc2ccc(NC(=O)Cc3ccccc3)cc2C(=O)N([C@H](C)CO)C[C@H]1C
64. CO[C@@H]1CN(C)C(=O)c2ccc(NC(=O)C3CCOCC3)cc2OC[C@H](C)NC[C@@H]1C
65. C[C@@H]1CCCCO[C@H](CN(C)C(=O)Cc2ccccc2)[C@@H](C)CN([C@H](C)CO)C(=O)c2cc(NC(=O)c3ccccc3)ccc2O1
66. C[C@H]1CN([C@@H](C)CO)C(=O)Cc2cc(NC(=O)Cc3ccccc3)ccc2O[C@H]1CN(C)C(=O)Nc1ccc(C(F)(F)F)cc1
assay / compound | 61 | 62 | 63 | 64 | 65 | 66
Vaccinia stage | -26 | -6 | 23 | 10 | 9 | 0
Vaccinia stage Venus | -21 | 5 | 18 | 16 | -6 | -1

# 3 compounds picked at random from the list so far, as already listed:
62. CN(C)C(=O)c1cccc(-c2ccc3c(c2)[C@H]2[C@H](CCN2C(=O)Cc2ccccc2)[C@@H](CO)N3)c1
26. O=C(C[C@@H]1C[C@H]2c3cc(NC(=O)NC4CCCCC4)ccc3O[C@H]2[C@@H](CO)O1)NCc1ccccn1
9. COc1ccc(CN(C)C[C@H]2Oc3ccc(NS(=O)(=O)c4ccc(Cl)cc4)cc3C(=O)N([C@H](C)CO)C[C@@H]2C)cc1
assay / compound | 62 | 26 | 9
Vaccinia stage | -6 | 9 | 9
Vaccinia stage Venus | 5 | 9 | 6

# Additional results follow:
67. C[C@@H]1CN([C@H](C)CO)C(=O)Cc2cc(NC(=O)C3CC3)ccc2O[C@@H]1CN(C)CC1CCCCC1
68. COc1cccc(NC(=O)N[C@H]2C=C[C@H](CC(=O)Nc3ccccc3)O[C@@H]2CO)c1
69. Cc1ccc(S(=O)(=O)N(C)C[C@@H]2OCCCC[C@@H](C)Oc3ccc(NC(=O)Nc4ccccc4)cc3C(=O)N([C@H](C)CO)C[C@H]2C)cc1
70. C[C@@H]1CN([C@H](C)CO)S(=O)(=O)c2ccc(C#CCN(C)C)cc2O[C@H]1CN(C)Cc1ccc2c(c1)OCO2
71. C[C@H]1CN([C@@H](C)CO)C(=O)c2cc(NC(=O)CCC(F)(F)F)ccc2O[C@H]1CN(C)S(=O)(=O)c1cccs1
72. Cc1noc(C)c1S(=O)(=O)Nc1ccc2c(c1)CC(=O)N([C@H](C)CO)C[C@H](C)[C@@H](CN(C)C(=O)Nc1ccccc1)O2
73. CC(C)(C)[C@H]1C=C(C(=O)N2CCOCC2)O[C@@H](OCc2ccc(CO)cc2)C1
assay / compound | 67 | 68 | 69 | 70 | 71 | 72 | 73
Vaccinia stage | -3 | -9 | -32 | ? | -3 | 12 | 13
Vaccinia stage Venus | 3 | -2 | -10 | nt | -6 | 15 | 8

# Screening data from PubChem.
